Source: PubChem BioAssay
Vaccinia Venus – inhibitors of vaccinia virus (Venus reporter). Vaccinia virus Venus reporter expression, fluorescence. 330,000 compounds, 0.46% hits. Potency, µM (series often up to 36.5 µM), inactives show at the top dose activity change, negative = inhibition, most hits filed as inhibitors; active means well fitted inhibition curve with a large enough effect; inconclusive means small, poorly fitted or top-dose-only effect; inactive means no such curve, though single readings can be large or run the other way; tested in A549 cells; also: nearly all actives have a fitted effect of over 30% in size; inactives centre near -10
Vaccinia mCherry – inhibitors of vaccinia virus infection (mCherry reporter signal); Vaccinia virus mCherry reporter infection, fluorescence; about a quarter of the inactives have no number; Potency, µM (series often up to 36.5 µM), without a hit: at the highest dose activity change, negative = inhibition, usual class: inhibitors; 310,000 compounds, 0.63% hits; AID 720579; active = well fitted inhibition curve with a large enough effect; inconclusive = small, poorly fitted or top-dose-only effect; inactive = no such curve, though single readings can be large or run the other way; tested in A549 cells; also: nearly all actives have a fitted effect of over 35% in size; inactives centre near -10
* hit, by the source's call; i = inactive; u = inconclusive; x = no result given; [ ] = another dose, or the depositor's remark. % is scaled to controls: 0 for no effect and ±100 for the full control effect; potency is read from the fitted curve at half-maximal effect. An unsorted share of the library (roughly 0.86% active in at least one column).

SMILES	Vaccinia Venus	Vaccinia mCherry
Cc1cnc2c(C)cccc2c1/C=C/c1ccc(N(C)C)cc1	-6.7%	-14.7%
O=C(C1CCCN(Cc2cc(Br)ccc2O)C1)N1CCCCC1 (stereo not drawn)	-5.6%	-6.0%
Cc1nn(-c2ccccc2)c(C)c1/C=C/C(=O)OC(C)C(N)=O (stereo not drawn)	-6.1%	-0.6%
Cc1ccc(CCNC(=O)C2CCN(c3nnc(C)c4c(C)n(-c5ccccc5)nc34)CC2)cc1	-1.5%	-9.4%
COc1ccc(NC(=O)CSc2nnc(C3CCCCC3)n2N)cc1	-11.3%[7.34 µM]	i[7.34 µM]
CC(C)(CC(=O)O)CC(=O)Nc1cc(C(F)(F)F)cc(C(F)(F)F)c1	-1.6%[7.34 µM]	6.9%[7.34 µM]
CC(C)(C)c1ccc(NC(=O)NCc2ccco2)cc1	u	u
COc1ccc(NC(=O)Cn2c(-c3ccccc3)cn(-c3ccc(C)cc3)c2=O)cc1	2.8%	i
CCc1nnc(NC(=O)CSc2nnc(-c3ccccc3O)n2-c2ccc(C)cc2C)s1	u	x
Cc1oc2c(cc(NS(=O)(=O)c3cccs3)c3ccccc32)c1C(=O)OC(C)C	-12.3%	-23.3%
C[C@]12CC[C@H](O)C[C@H]1CCC1C2CC[C@]2(C)[C@@H](c3ccc(=O)oc3)C[C@H]3O[C@]132 (stereo partly drawn)	1.12µM*	1.26µM*
COc1cc(CNC(=O)c2ccc3nc(Cc4ccccc4)oc3c2)cc(OC)c1OC	-18.8%	u
CC(C)C(N)c1csc(Nc2ccc(C(=O)N(C)Cc3ccccc3)cn2)n1 (stereo not drawn)	-5.8%	i
Cc1nc(N/N=C/c2cccnc2)cc(N2CCOCC2)n1	-17.4%	i
Cc1ccc(NC(=O)c2cccc(N3CCCS3(=O)=O)c2)cc1C	-6.4%	-14.9%
O=C(NC1CCCCC1)c1cc(-c2ccccc2Cl)on1	-12.3%	-13.1%
COc1ccccc1NC(=O)C1CC(C)OC1=O (stereo not drawn)	10.7%	-1.2%
COc1ccccc1NS(=O)(=O)c1cc(C(=O)NCCC(C)C)ccc1F	-18.9%	i
CCCCOc1ccc(C(=O)Nc2sc3c(c2C(=O)OCC)CCCCC3)cc1	-6.9%	-10.7%
O=C(c1ccco1)N1CCN=C1SCc1ccccc1Cl	-11.2%	1.1%
CC(=O)Nc1cccc(C(=O)N2CCN(S(=O)(=O)Cc3ccccc3)CC2)c1	-2.7%	i
Nc1cc(C(=O)OCC(=O)NCCNC(=O)COC(=O)c2ccc(Cl)c(N)c2)ccc1Cl	1.6%	-18.6%
CCN(c1ccccc1)S(=O)(=O)c1ccc(OC)c(NC(=O)C2=NN(c3ccccc3)C(=O)CC2)c1	-16.3%	-7.9%
CC(=O)NCCc1ccc(S(=O)(=O)N2CCN(c3nc(-c4ccccc4)c(C)s3)CC2)cc1	-15.2%	-1.5%
Cc1csc(NC(=O)CSc2nc3ccccc3s2)n1	-9.6%	-14.1%
CCCc1cc(=O)[nH]c(Nc2ccccc2O)n1	12.6%	-9.6%
CCCCOC(=O)c1ccc(NC(=O)c2ccccc2OC)cc1	-12.5%	-24.7%
O=C(COc1ncnc2ccccc12)NCc1ccc2c(c1)OCO2	8.7%	-1.8%
COc1ccc(CCN2C(=O)N(c3ccc(OC)cc3)C(=O)C2CC(=O)Nc2ccccc2)cc1 (stereo not drawn)	-12.0%	-2.5%
Cc1ccc(C)c(C(=O)COC(=O)CCN2C(=O)C3C4CCC(C4)C3C2=O)c1 (stereo not drawn)	-21.3%	-1.8%
CCNC(=O)CN(CCc1ccccc1)S(C)(=O)=O	2.0%	x
CCC(=O)Nc1cccc(NC(=O)CSc2nnnn2Cc2ccccc2)c1	-14.9%	i
CC(=O)NC(Cc1ccc(F)c(F)c1)C(=O)NC1CCN(S(=O)(=O)c2ccc(C)cc2)CC1 (stereo not drawn)	-16.2%	-12.2%
Cc1ccc(N2CCN(CC(O)COc3ccccc3)CC2)cc1 (stereo not drawn)	-11.0%	u
COC(=O)[C@@]12CCCCN1[C@H](c1ccc(-c3ccc(OC)cc3)cc1)[C@@H]1C(=O)N(C)C(=O)[C@@H]12	u	u
COc1ccc(CN(CC(=O)NC2CCCC2)C(=O)c2onc(C(N)=O)c2N)cc1	-9.0%	-15.3%
O=C(C1CCCC1)N1CCC(CO)(Cc2ccccc2Cl)CC1	-3.3%	-14.5%
Cc1nc([N+](=O)[O-])cn1CC(O)c1ccccc1 (stereo not drawn)	15.5%	-4.2%
O=C(NCc1ccccc1)/C(=C\c1ccccc1)NC(=O)c1ccco1	-2.8%	i
Cc1ccc(NC(=S)NCc2ccccc2)c(C)c1	-2.6%	i
COc1cccc(CNS(=O)(=O)c2ccc(S(=O)(=O)NC3CC3)cc2)c1	-5.9%	-28.1%
Cc1ccc(Nc2nc(N)c([N+](=O)[O-])c(NCCO)n2)cc1C	-27.7%	u
CCN(CC)C(=O)C1=C(C)N(Cc2ccc(OC)cc2)C(=O)C(CC(=O)NCc2cccs2)C1 (stereo not drawn)	u	-14.8%
CCOc1ccc(C2c3c(oc4ccc(C)cc4c3=O)C(=O)N2Cc2ccc3c(c2)OCO3)cc1OC (stereo not drawn)	5.4%	-7.5%
COc1ccc(CNC(=O)c2cnn3c(C)c(Cc4ccc(F)cc4)c(C)nc23)cc1	u	u

Four compounds picked at random from those above:
SMILES	Vaccinia Venus	Vaccinia mCherry
CCN(c1ccccc1)S(=O)(=O)c1ccc(OC)c(NC(=O)C2=NN(c3ccccc3)C(=O)CC2)c1	-16.3%	-7.9%
O=C(C1CCCN(Cc2cc(Br)ccc2O)C1)N1CCCCC1 (stereo not drawn)	-5.6%	-6.0%
COC(=O)[C@@]12CCCCN1[C@H](c1ccc(-c3ccc(OC)cc3)cc1)[C@@H]1C(=O)N(C)C(=O)[C@@H]12	u	u
Cc1ccc(NC(=S)NCc2ccccc2)c(C)c1	-2.6%	i

(more compounds)
SMILES	Vaccinia Venus	Vaccinia mCherry
COc1ccc(CNC(=O)c2sc3nc4c(c(C(F)(F)F)c3c2N)CCC4)cc1OC	-4.1%	-13.9%
COc1cccc(-c2cncnc2-n2ccnc2)c1	10.5%	6.1%
CC(C)=CCc1c2c(c(O)c3c(=O)c(O)c(-c4ccccc4)oc13)C=CC(C)(C)O2	-5.4%	-7.7%
O=[N+]([O-])c1ccc(-n2nnnc2-c2ccccc2)c([N+](=O)[O-])c1	u	u
CC(=N)c1c(O)cc(C)oc1=O	4.1%	i
CCCN(CC(=O)Nc1ccccc1OC)C(=O)Cn1c(=O)oc2ccccc21	-11.9%	-13.3%
COCCNC(=S)N/N=C/c1c(C)[nH]c2ccccc12	u	-18.7%
CC1(C(=O)NS(=O)(=O)c2ccccc2Cl)CCN1C(=O)Cc1ccccc1Cl (stereo not drawn)	2.2%	i
Cc1oc(-c2cccc(Cl)c2)nc1CSCC(=O)NCc1ccccc1Cl	-20.2%	-9.1%
O=C(CCCC(=O)NCC1CCCO1)NCC1CCCO1 (stereo not drawn)	-17.5%	i
Cc1ccc(NC(=O)CSC2=Nc3ccccc3C3=NC(Cc4ccccc4)C(=O)N23)cc1C (stereo not drawn)	-21.8%	-9.2%
O=c1c2ccccc2nnn1CCc1ccccc1	-3.7%	-13.2%
O=C(CSc1nnc(-c2ccc(Br)cc2)n1-c1ccccc1)c1ccccc1	-22.7%	-12.5%
C#CCNC(=O)C1=C[C@@H](C2CC2)[C@H](CCCO)[C@@H](OCC)O1	-6.4%	-14.3%
C[C@@H]1CN([C@H](C)CO)C(=O)c2cc(Br)cnc2O[C@@H]1CN(C)Cc1cncnc1	-5.4%	i
Nc1ncnc(Nc2ccc(S(N)(=O)=O)cc2)n1	-6.2%	i
Cc1ccc(C)c2[nH]c(=O)c(CCNS(=O)(=O)c3ccccc3)cc12	-14.3%	-1.8%
N#C/C(=C\c1c(N2CCCCCC2)nc2ccccn2c1=O)C(=O)NC1CCS(=O)(=O)C1 (stereo not drawn)	-9.6%	i
CN1CCN(c2ccccc2NC(=O)c2ccc(-c3cccc(Cl)c3)o2)CC1	u	u
Cc1ccc(Cn2cc(S(=O)(=O)c3cccc(Cl)c3)c(=O)c3cc(F)c(N4CCOCC4)cc32)cc1	-15.6%	-2.5%
Cc1ccc(NC(=O)CCn2nnc3ccccc32)c(C)c1	-3.7%	-2.9%
C[C@@H]1CC2=C(C(=O)OC(C)(C)O2)[C@@H](C2CC2)O1	9.4%	31.9%[activator]
O=C(CC1CCCC1)Nc1ccc(Cl)c(S(=O)(=O)N2CCOCC2)c1	-26.2%	u
COc1ccc(C2Nc3ccccc3C(=O)N2Cc2ccccc2)cc1CSc1ccccn1 (stereo not drawn)	-13.2%	i
COc1ccc(NS(=O)(=O)c2cccc3nsnc23)cc1Cl	5.0%	-1.0%
Cc1ncc2c(c1CNC(=O)c1cncs1)CCN(C(=O)c1ccc(-c3ccccc3)cc1)C2	-11.7%	-19.4%
COc1cccc(CN2CCCCC2C(=O)O)c1 (stereo not drawn)	3.8%	10.7%
CCOc1ccc(NC(=O)c2cccc(NC(=O)c3ccccc3)c2)cc1	u	-8.4%
CCC(=O)N1CCCc2cc(S(=O)(=O)N3CCN(c4ncccn4)CC3)ccc21	-7.6%	6.2%
CCN(C(=O)c1cn(CC(C)C)c(=O)c2cc(OC)c(OC)cc12)c1cc(OC)ccc1OC	-6.4%	-13.4%
CC(=O)c1c(C)[nH]c(C(=O)OCc2nnc(-c3ccc([N+](=O)[O-])cc3)o2)c1C	-26.4%	-23.8%
CC1CN(C(=O)c2cc(COc3c(F)cccc3F)on2)CCN1C (stereo not drawn)	-5.9%	-0.7%
Cc1c(C(=O)N(C)Cc2cccc(F)c2)oc2c(Cl)cccc12	-1.3%	-4.4%
CCc1ccc(NC(=O)c2cc(S(=O)(=O)NC3CCCC3)ccc2F)cc1	-17.0%	i
O=C(NNC1=Nc2ccccc2SC1)c1ccc(Cl)cc1	-13.7%[7.34 µM]	-21.8%[7.34 µM]
CCN(c1ccccc1)S(=O)(=O)c1cc(Br)cc2c1N(C(=O)C1CC1)CC2	-16.6%	-23.6%
CC(C)OCCCNC(=O)CN1CCN(Cc2ccccc2Cl)C1=O	-4.3%	-13.6%
O=C(Nc1nc2ccccc2[nH]1)c1cccc([N+](=O)[O-])c1	-18.5%	i
CC(C)CC(=O)NCCNC(=O)c1cc(OCC(F)(F)F)ccc1OCC(F)(F)F	-7.1%	x
CCCCC(=O)N(C)c1c(CC)nc2c(OCCOc3ccccc3)cccn12	-14.4%	-7.1%
Cc1nc([N+](=O)[O-])cn1CC(O)c1ccc2c(c1)OCCO2 (stereo not drawn)	-21.1%	-1.9%
CC(=O)N1CCN(c2ccccc2NC(=O)c2ccc(C#N)cc2F)CC1	17.1%	-19.1%
O=C(O)CCC(=O)N1CCN(S(=O)(=O)c2cccs2)CC1	-7.6%	i
Cc1nc2nc(NC(=O)c3ccc(Cl)cc3)[nH]n2c(=O)c1Cc1ccccc1	-5.9%	-9.9%
COc1ccccc1NC(=O)Nc1nc(CC(=O)Nc2ccc(OC)c(OC)c2)cs1	-20.2%	-2.1%
O=C(Nc1nc(-c2ccccc2)c(C(=O)c2ccccc2)s1)c1ccc(S(=O)(=O)N2CCCC2)cc1	-9.0%	i
O=C1CCCCC(=O)[C@H](OC(=O)c2ccccc2)C[C@H](c2ccccc2)O1	1.4%	-12.8%
O=C(CSc1ccncc1)Nc1ccc2ccccc2c1	7.7%	-5.8%
CCOC(=O)c1ccc(NC(=O)CSc2nnc(CNC(=O)c3ccco3)o2)cc1	-1.2%	i
O=S(=O)(Nc1ccc(S(=O)(=O)Nc2ncccn2)cc1)c1ccccc1	-2.2%	8.6%
Cc1ccccc1C(=O)c1cccn1CC(=O)NCCCN1CC(C)CC(C)C1 (stereo not drawn)	-17.0%	-2.6%
CCC1=NN(C(=O)c2ccccc2[N+](=O)[O-])C(O)(c2ccccc2)C1 (stereo not drawn)	-7.2%	-9.6%
COC(=O)C1=C(c2ccc3ccccc3c2)C[C@@H]2CC[C@H]1N2C(=O)NC1Cc2ccccc2C1	-18.2%	-13.8%
Cc1cccc(CCNC(=O)C2CC(O)CN2C(=O)Nc2ccccc2)c1 (stereo not drawn)	-10.3%	-25.6%
CCOc1ccc(CCNC(=O)COC(=O)C2CCN(S(=O)(=O)c3ccccc3)CC2)cc1OCC	-9.2%	-15.7%
CC(C)Cn1c(SCC(=O)NCc2ccco2)nnc1-c1ccncc1	1.7%	3.5%
COc1cccc(CN(C)C(=O)CNC(=O)c2cccs2)c1OC	1.5%	-14.4%
CC1(C)CC(=O)C([N+](=O)[O-])=C(NCCCC(=O)O)C1	-16.0%	i
C#C[C@@]1(O)CCC2C3CCC4=C/C(=N/OCC(=O)NC(C(=O)O)C(C)O)CC[C@]4(C)C3CC[C@@]21C (stereo partly drawn)	-4.0%	-10.2%
O=C(COc1ccccc1Cl)N1CCCCCCC1	-14.1%	i

As a working copy, some entries already given.
SMILES	Vaccinia Venus	Vaccinia mCherry
CCC1=NN(C(=O)c2ccccc2[N+](=O)[O-])C(O)(c2ccccc2)C1 (stereo not drawn)	-7.2%	-9.6%
COC(=O)C1=C(c2ccc3ccccc3c2)C[C@@H]2CC[C@H]1N2C(=O)NC1Cc2ccccc2C1	-18.2%	-13.8%

The listing continues:
SMILES	Vaccinia Venus	Vaccinia mCherry
Cc1csc(NC(=O)CSC2=NS(=O)(=O)c3ccccc3N2)n1	1.6%	-1.7%
O=C(c1cc2c(=O)oc3ccccc3c2s1)N1CCN(c2cccc(Cl)c2)CC1	-5.5%	4.1%
Cc1ccc(C)c(NC(=S)NC(=O)c2cncc(Br)c2)c1	-11.2%	-23.1%
CCCCNCCOc1ccccc1-c1ccccc1	-20.6%	u
